Assay outcomes: PubChem, National Center for Advancing Translational Sciences (NCATS)
miR-21 reporter: miR-21 reporter, rising signal; HeLa miR-21 FLuc reporter, luciferase, 48 h; Potency, µM (highest dose often 38.3 µM), inactives show top-dose reporter change, positive = more light; 340,000 tested, under 10 active; AID 2288; active = well fitted rising curve with a large enough effect; inconclusive = small, poorly fitted or top-dose-only effect; inactive = no such curve, though single readings can be large or run the other way;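 also: % of control where 0% means no effect; miR-21 action dims this reporter so a rising signal means less miR-21 action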
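HeLa cells endogenously expressing miR-21, stably carrying CMV-driven firefly luciferase with a downstream miR-21 binding site, 2000 cells/well. Titrations up to approximately 40 uM, 48 hours; luciferase luminescence read.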
Rango dissoc inh: prevents RanGTP from dissociating the Rango-importin beta complex | O95149+P62826 | Biochemical FRET Rango-importin beta, RanGTP-induced dissociation | Potency, µM (doses to about 46.1 µM), for the others: top-dose activity change, negative = inhibition | 340,000 tested, 0.071% active; active means falling FRET ratio curve, often poorly fitted, with flat reads before Ran was added; inconclusive means other falling curves, or compound fluorescence or quenching; inactive means flat or rising ratio curve;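 also: potency is read from the fitted curve at half-maximal effect; % of control where 0% means no effect; nearly all actives have a fitted effect of over 45% in size; -100% = wells without RanGTP and RCC1; the record marks most hits as doubtful in a second field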
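Quantitative HTS using a FRET biosensor: 0.1 uM Rango, 0.25 uM importin beta, 0.6 uM Ran, 2 mM GTP, 0.2 uM RCC1 final, PBS with DTT, Tween-20 and BSA. Post-read taken 45 min after Ran addition.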
Rango complex inh: inhibitors of Rango-importin beta complex formation. Q14974. Rango CFP/YFP FRET sensor + importin beta, 45 min. Potency, µM (series often up to 92.2 µM), for inactives: top-dose inhibition of complex formation. 340,000 tested, 0.031% active; active = rising FRET ratio curve, often small or poorly fitted; inconclusive = mostly compound fluorescence or quenching in the first reads; inactive = flat curves in all reads;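 also: potency is read from the fitted curve at half-maximal effect; 0% = DMSO wells and 100% = buffer wells lacking importin beta; nearly all actives have a fitted effect of over 15% in size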
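Inhibition scored from the CFP 486 nm/YFP 530 nm FRET ratio 45 min after adding 0.125 microM importin beta to 50 nM Rango biosensor preincubated 5 min with compound (room temperature, PBS with DTT, Tween-20, BSA). No-importin wells as positive control.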
GLA inh pH 4.5: blocks human alpha-galactosidase A at pH 4.5 | P06280 | purified enzyme, 4-MU-alpha-Gal fluorescence, pH 4.5 | activity change, negative = inhibition, % at 105 µM | 230,000 tested, under 10 active; inconclusive = small, poorly fitted or top-dose-only inhibition, or a rising curve; inactive = flat fitted curve, though single readings scatter; no compound was filed as active;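 also: 0% = full activity with enzyme and -100% = basal without enzyme; dose as in the result columns while the protocol names 77 µM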
Target sequence (P06280 whole entry, looked up): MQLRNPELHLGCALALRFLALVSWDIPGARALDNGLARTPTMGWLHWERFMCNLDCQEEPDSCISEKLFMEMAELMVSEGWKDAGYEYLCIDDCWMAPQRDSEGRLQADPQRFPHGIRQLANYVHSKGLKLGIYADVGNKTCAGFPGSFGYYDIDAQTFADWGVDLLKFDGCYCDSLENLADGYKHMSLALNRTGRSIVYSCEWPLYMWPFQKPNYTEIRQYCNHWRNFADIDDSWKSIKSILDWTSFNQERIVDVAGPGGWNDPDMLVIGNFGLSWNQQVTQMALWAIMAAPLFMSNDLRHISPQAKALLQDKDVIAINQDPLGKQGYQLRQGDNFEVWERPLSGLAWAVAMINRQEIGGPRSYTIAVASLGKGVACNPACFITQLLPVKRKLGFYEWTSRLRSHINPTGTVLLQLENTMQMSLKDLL
* = called active by the depositor; ? = inconclusive; . = no result given; & = joins results of further samples. These rows are one share of the data, so the mix of outcomes need not match the whole.

miR-21 reporter	Rango dissoc inh	Rango complex inh	GLA inh pH 4.5	structure
-5.5%	0.9%	-0.5%	-10.8	CC(=O)c1c(C)nc2ccc(Br)cc2c1C(=O)O
-0.6%	12.1%	1.0%	.	CC1(C(=O)O)CCC(C(=O)Nc2ccc(Cl)c(Cl)c2)C1(C)C (stereo not given)
-2.6%	?	?	-1.1	CNc1cc(F)nc(F)n1
1.9%	18.9%	-2.7%	5.9	CCN(CC)CCn1c(=S)[nH]c2ncccc2c1=O
0.9%&-4.5%	5.3%	-2.1%	.	CCc1cccc(C)c1NC(=O)CC1Oc2ccc(C)cc2NC1=O (stereo not given)
-3.8%	8.1%	0.6%	8.9	CCCN1CCN(C(=O)c2cn(CC(C)C)c(=O)c3cc(OC)c(OC)cc23)CC1
.	-1.0%	0.5%	.	O=C(CN1C(=O)NC2(CCCCCC2)C1=O)c1ccc(Cl)cc1
-3.0%	22.5%	-2.5%	-6.0	CN(CCN1CCOCC1)Cc1nc(-c2ccc(Cl)cc2)no1
-2.4%	1.0%	2.4%	.	CC(=O)N1c2ccc(S(=O)(=O)N3CCCC3)cc2CC1C(=O)Nc1cc(C)cc(C)c1 (stereo not given)
-15.7%	-23.9%	1.1%	-6.1	O=C(CNc1cccc(S(=O)(=O)N2CCOCC2)c1)N1CCc2ccccc21
-4.8%	14.5%	-4.2%	3.5	CCOc1ccc(NC(=O)c2ccc(CNc3c(NC4CCCCC4)c(=O)c3=O)cc2)cc1
8.3%	10.2%	0.5%	1.1	CCOc1ccc(CN2CCN(C/C=C/c3ccc(OC)cc3)CC2CCO)cc1 (stereo not given)
-0.6%	-7.9%	-0.2%	4.5	CCN(CC)C(=O)NC1CCCCCCC1
-36.9%	18.4%	0.0%	-2.1	Cc1cccc(C(=O)NC(=S)Nc2ccccc2C(=O)O)c1
-20.2%	5.3%	-0.8%	.	O=C(Nc1cccc2ccccc12)c1cccc(F)c1
-1.4%	-3.5%	4.1%	-2.2	Cc1ccc(S(=O)(=O)NC(C)(C)CSc2nncn2C)cc1
.	-2.5%	1.9%	.	CCN(C(=O)COc1ccc(N(C)S(=O)(=O)c2ccc(NC(C)=O)cc2)cc1)C1CCCCC1
-4.9%	-18.1%	0.5%	4.2	CCNC(=S)NNC(=O)c1cccn(Cc2ccc(Cl)cc2Cl)c1=O
-2.0%	-27.7%	-1.0%	-8.0	O=C(Cn1ccc([N+](=O)[O-])n1)NCc1nc2ccccc2[nH]1
.	41.2%	-0.7%	.	O=C(CCCSc1ccccc1)Nc1ccc(Cl)c(S(=O)(=O)N2CCOCC2)c1
-15.5%	-4.8%	0.4%	0.8	Cc1ccc(CN2C(=O)N/C(=C\c3cccn3-c3cccc(C(=O)O)c3)C2=O)cc1
.	0.7%	-4.1%	.	CN(C(=O)c1ccc(NC(=O)C2CCCN(C(=O)OC(C)(C)C)C2)cc1)C1CCCC1 (stereo not given)
-8.6%	0.1%	-0.4%	-3.2	CC(C)CC(C)NNC(=O)c1cc2ccccc2[nH]1 (stereo not given)
0.9%&7.9%	-2.8%	-7.5%	.	CCOC(=O)C1CCN(S(=O)(=O)c2csc(C(N)=O)c2)CC1
-2.8%	-0.4%	1.5%	.	O=C(NCC1CCOCC1)c1cc(COc2cccc(C(F)(F)F)c2)on1

Compound profiles, as listed above. Order of screens: miR-21 reporter, Rango dissoc inh, Rango complex inh, GLA inh pH 4.5
Listed for O=C(CNc1cccc(S(=O)(=O)N2CCOCC2)c1)N1CCc2ccccc21 → -15.7%, -23.9%, 1.1%, -6.1
Listed for O=C(CN1C(=O)NC2(CCCCCC2)C1=O)c1ccc(Cl)cc1 → ., -1.0%, 0.5%, .
Listed for Cc1ccc(CN2C(=O)N/C(=C\c3cccn3-c3cccc(C(=O)O)c3)C2=O)cc1 → -15.5%, -4.8%, 0.4%, 0.8

(further entries)
miR-21 reporter	Rango dissoc inh	Rango complex inh	GLA inh pH 4.5	structure
0.4%	5.3%	-1.7%	-8.2	CCn1c(COc2cccc(C)c2)nnc1SCC(=O)N1CCCC1
-18.3%	2.7%	0.0%	-6.9	C/C(CC(=O)NC12CC3CC(CC(C3)C1)C2)=N\NC(=O)c1cnccn1
-63.0%	-8.0%	-3.2%	-6.5	Cc1ccc(Nc2nc(N)c([N+](=O)[O-])c(NCc3ccco3)n2)cc1
-0.8%	3.6%	-0.8%	4.3	COc1cccc(C(=O)CN2CCC(NC(=O)NC3CCCCC3)CC2)c1
11.7%	2.0%	1.2%	-1.6	NCCSc1c(-c2ccc(Cl)cc2)[nH]c2ccccc12
0.8%	-0.2%	0.0%	6.7	CCNc1ccc(S(=O)(=O)N(C)C)cc1[N+](=O)[O-]
4.9%	-5.6%	3.3%	-1.0	CC1CC(C)CN(C(=O)CN2CCN(Cc3ccc(Cl)cc3)C2=O)C1 (stereo not given)
-1.0%	-0.3%	-0.4%	6.7	COc1ccccc1-n1cc(C(=O)NCC(=O)N2CCN(Cc3ccccc3)CC2)c2ccccc2c1=O
-15.0%	-14.5%	-5.0%	9.2	O=C(CCc1nnc(CCc2ccccc2)o1)N1CCCCC1CCn1cccn1 (stereo not given)
-0.8%	5.0%	-0.3%	-3.7	O=C(Cn1nnc2ccccc21)NNC(=O)c1ccccc1
-6.6%	-10.9%	2.4%	-22.4	O=C(CNS(=O)(=O)c1ccccc1)OCC(=O)c1cccc([N+](=O)[O-])c1
.	25.9%	-0.1%	.	CCOC(=O)[C@@H]1[C@H]2COc3ccccc3[C@@H]2N2C(=O)N(c3ccc(C(F)(F)F)cc3)C(=O)[C@]12C
-9.6%	-14.9%	2.1%	3.0	COc1cc(OC)c(OC)cc1CN1CCN(Cc2cccn2C)CC1
-9.9%	-16.6%	-2.2%	.	Cc1cc(C)c(C(=O)NC2CCCc3c2cnn3-c2ccc(C)c(C)c2)c(=O)[nH]1 (stereo not given)
-10.4%	6.6%	-0.4%	2.8	Cc1ccccc1NS(=O)(=O)c1cc(C(N)=O)ccc1C
-6.0%	8.5%	1.7%	6.2	CC(C)Oc1ccc(CNC(=S)N/N=C/c2cccnc2)cc1
-4.6%	12.1%	-1.8%	0.3	COc1ccccc1CN1CC(C(=O)N2CCN(c3ccc(F)cc3)CC2)CC1=O (stereo not given)
6.1%	-7.1%	-3.9%	4.3	O=C([C@H](Cc1ccccc1)NS(=O)(=O)c1ccc(Cl)cc1)N1CC[C@@]2(O)CCCC[C@H]2C1
9.0%	-10.7%	0.0%	-23.6	O=C(NCc1ccc2c(c1)OCO2)c1ccc(Cl)c(S(=O)(=O)NCc2ccccc2)c1
-1.6%	?	?	.	COc1ccc(CNCc2c(O)c(Cl)cc3c(C)c(C)c(=O)oc23)c(OC)c1
0.2%	-18.1%	-0.2%	-5.5	OCC1(Cc2ccccc2C(F)(F)F)CCN(Cc2ccncc2)CC1
-63.5%	1.8%	-0.8%	-2.7	CCOC(=O)c1sc(=N)n(-c2ccc(OC)cc2)c1C
-58.3%	10.6%	0.2%	5.0	CSc1nc(-c2ccc(Cl)cc2)nn1C(=O)c1ccccc1
-8.5%	0.1%	2.6%	11.5	Cc1ccc(N(CC(O)CN(C)C)S(=O)(=O)c2ccccc2)cc1 (stereo not given)
-4.6%	0.4%	-1.5%	11.5	CCc1ccc(CN(C)Cc2nc(Cc3ccc(OC)c(OC)c3)no2)nc1

More results
miR-21 reporter	Rango dissoc inh	Rango complex inh	GLA inh pH 4.5	structure
2.9%	14.3%	?	1.6	CCOC(=O)c1cc(-c2ccco2)nc2c1c(C)nn2-c1ccccc1
-3.5%	1.2%	-3.2%	-1.6	C/C(=N\Nc1nc2ccccc2[nH]1)c1ccc2c(c1)OCCO2
13.8%	-5.1%	-2.8%	.	COc1ccc(C(=O)NCC2(c3ccccc3)CCCC2)c(OC)c1
.	0.8%	0.0%	.	O=C1OC(c2ccccc2)(c2ccc(O)cc2)c2ccccc21 (stereo not given)
.	4.8%	2.5%	.	COc1ccc(CCC(=O)NNC(=O)c2ccccn2)cc1OC
4.3%	-6.2%	-0.2%	.	CC1=C(C(=O)OCc2ccccc2)C(c2ccccc2[N+](=O)[O-])NC(=O)N1C (stereo not given)
-0.9%	0.8%	2.6%	-6.6	O=C(CN(C(=O)Cn1nnc(-c2cccs2)n1)c1ccc2c(c1)OCCO2)NCc1ccccc1
-1.4%	-1.7%	5.0%	0.5	Cc1nn(-c2nc3ccccc3n2Cc2ccccc2)c2c1C(=O)CC(C)(C)C2
3.6%	2.1%	-6.3%	.	COc1ccc(OC)c(NC(=O)CCN2CCN(c3ccccc3OC)CC2)c1
5.8%	14.0%	3.6%	3.4	CC1CN(C(=O)COC(=O)c2cc([N+](=O)[O-])ccc2Cl)CC(C)O1 (stereo not given)
-7.8%&-23.1%	16.0%	0.5%	.	Cc1ccc(NC(=O)C2CCCN(S(=O)(=O)c3ccc4[nH]c(=O)ccc4c3)C2)cc1C (stereo not given)
-0.5%	-6.6%	5.6%	5.3	Brc1cccc(-c2nnc3n2CCCCC3)c1
-11.7%	-18.1%	6.7%	-5.8	CCC(=O)Nc1ccc(-c2nn3c(C)nnc3s2)cc1C
-0.7%	16.3%	0.7%	6.6	CC1CCCCN1S(=O)(=O)c1ccc2c(c1)CCN2C(=O)CCC(=O)O (stereo not given)
-7.6%	1.6%	0.5%	1.2	COC(=O)c1cc(=O)n(CCc2ccc(OC)c(OC)c2)c(=Nc2ccc(F)c(Cl)c2)s1
.	-6.7%	0.6%	.	CON(C)C(=O)CCN(C(=O)OC(C)(C)C)c1ccccc1
-8.8%	-14.2%	3.4%	1.2	O=C(Nc1ccc2c(c1)OCO2)C1CC(c2ccc(F)cc2)=NO1 (stereo not given)
-11.1%	0.0%	2.5%	0.2	O=C(COc1ccc([N+](=O)[O-])cc1)N/N=C/c1cc([N+](=O)[O-])ccc1N1CCOCC1
0.1%	-8.1%	-0.5%	-4.6	COc1ccc(-n2nc(C)cc2N)cc1
-9.4%	3.7%	2.2%	-9.1	Cn1nccc1C(=O)N/N=C/c1cccnc1
-1.6%	0.9%	-3.4%	0.7	CCOC(=O)c1c(C)[nH]c(C(=O)CSc2nnc(CC(C)c3ccccc3)o2)c1C (stereo not given)
-0.4%	.	.	-8.6	COc1ccc(Br)cc1/C=N/NC(=O)c1cc(Br)ccc1O
-6.8%	0.4%	-1.1%	-8.8	CCCc1nc(N)nc2c1C(=O)CC(C)(C)C2
4.9%	-3.7%	-2.8%	5.2	Cn1c(CN2CCCC2)nc2cc(NS(=O)(=O)c3ccc(Cl)cc3)ccc21
-1.9%	19.0%	-3.3%	-19.4	CCOc1cccc(CNn2cnnc2)c1OCc1ccccc1

Continuation:
miR-21 reporter	Rango dissoc inh	Rango complex inh	GLA inh pH 4.5	structure
-59.2%	-8.6%	-1.5%	8.5	Cc1cccc(CSc2ccc(-c3ccco3)nn2)c1
-0.6%	?	?	.	CCn1c(/C=C/c2cc[n+](C)cc2)nc2ccccc21
.	-17.3%	1.6%	.	O=C(c1cccc(C(F)(F)F)c1)N1CCC(=O)N(C(CO)Cc2ccccc2)CC1 (stereo not given)
-22.3%	-9.2%	2.5%	.	CCC(=O)N1CCN(c2ccc(NC(=O)c3ccco3)cc2Cl)CC1
-1.8%	9.9%	0.2%	.	O=C(CSc1nnc(CNC(=O)c2c(F)cccc2F)o1)c1ccccc1
2.7%	.	.	-1.1	CN(C)[C@@H]1C(=O)C(C(=O)NCN2CCCC2)=C(O)[C@@]2(O)C(=O)C3=C(O)c4c(O)cccc4[C@@](C)(O)C3CC12 (stereo not given in full)
?	-0.8%	2.1%	.	Oc1ccc(N=Nc2ccccc2C(F)(F)F)c2cccnc12
13.7%	-8.7%	3.8%	0.8	O=C(NCc1ccccc1)C(c1ccccc1)N(Cc1cccs1)C(=O)c1cnccn1 (stereo not given)
1.3%	8.0%	2.6%	.	COc1ccc(-c2nc3c(s2)CCc2onc(-c4ccc(OC)cc4)c2-3)cc1
0.1%	.	.	6.9	CC(=O)Nc1cn(C(C)=O)c(C)n1
